# Ecoli growth: inhibitors of Escherichia coli growth. OD600, 23 h; stronger effect = lower value. OD600 absorbance (no concentration beside the values). hit rate 0.21% among 330,000;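 active = OD600 absorbance below the run mean of sample wells minus 3.6 SD, in any replicate, cut at about 0.56 in these data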;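 also: stock transfer was 300 nL into about 60 µL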
# T cruzi repl: T. cruzi replication inhibition. T. cruzi beta-gal in NIH3T3, luminescence, 90 h. inhibition, % (no concentration beside the values). hit rate 1.4% among 300,000. AID 1885;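 active = mean inhibition across valid replicates above about 55%, limit read from the data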;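 also: signal also drops with host cell toxicity which is not excluded here; 0% = plate median of DMSO wells and 100% = zero luminescence signal; higher percent means less beta-gal luminescence so fewer parasites; stock transfer was 50 nL into about 50 µL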
# FGF22 binding: FGF22 (human) thermal shift binding | hit rate 1.5% among 340,000 | recombinant FGF22 thermal shift, SYPRO orange fluorescence; percent of sucrose octasulfate shift, DMSO zero | Q9HCT0 | calls only at 9.99 µM;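 active = melting point raised past a set limit in the mean and every replicate; three in four hits are not shown here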
# Target sequence (Q9HCT0 whole entry, looked up): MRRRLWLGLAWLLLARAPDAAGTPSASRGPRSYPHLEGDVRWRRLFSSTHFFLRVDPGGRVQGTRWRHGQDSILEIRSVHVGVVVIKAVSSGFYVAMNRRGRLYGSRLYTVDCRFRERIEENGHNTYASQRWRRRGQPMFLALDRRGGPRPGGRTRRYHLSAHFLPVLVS
# rRNA inh HTS: inhibits bacterial ribosomal RNA function over humanized ribosomes | E. coli WT GFP vs humanized-ribosome RFP mutants, fluorescence, 24 h; stronger effect = lower value; DMSO median 0, no signal -100 | GFP signal change (wild-type ribosome), % (test concentration not listed) | hit rate 1.6% among 350,000;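 active = significant combined selectivity score with lowered wild-type GFP, culture density cut under 30%, mutant RFP and density less affected; inactive = any of these conditions unmet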; also: one replicate is shown; some compounds called inactive have numbers as strong as hits
# A1 inh: inhibitors of the anti-apoptotic protein A1, read as caspase activation; caspase activation, % (test concentration not listed); MEF A1-2A-BIM cells, Caspase-Glo 3/7 luminescence, 3 h; percent of clofoctol response, vehicle zero; hit rate 0.066% among 330,000; AID 2462;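 active = over half of replicate activation scores above 10%, or exactly half above 10 with the replicate mean above 10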;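 also: wells of about 30 µL received 50 nL stock; many hits fall short of the cut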
# AF4-AF9 inh: blocks AF4 peptide binding to human AF9 | P42568 | AlphaScreen, biotin-AF4 peptide binding to FLAG-AF9 | inhibition, % at 10 µM | hit rate 0.47% among 350,000;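 active = every replicate reaching a set inhibition limit, whatever the replicate mean, cut at about 25% in these data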;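 also: 0% = plate neutral control median and 100% = total signal loss; the record names both 10 and 1 µM as test concentration; the first replicate is given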
# Target sequence (P42568 whole entry, looked up): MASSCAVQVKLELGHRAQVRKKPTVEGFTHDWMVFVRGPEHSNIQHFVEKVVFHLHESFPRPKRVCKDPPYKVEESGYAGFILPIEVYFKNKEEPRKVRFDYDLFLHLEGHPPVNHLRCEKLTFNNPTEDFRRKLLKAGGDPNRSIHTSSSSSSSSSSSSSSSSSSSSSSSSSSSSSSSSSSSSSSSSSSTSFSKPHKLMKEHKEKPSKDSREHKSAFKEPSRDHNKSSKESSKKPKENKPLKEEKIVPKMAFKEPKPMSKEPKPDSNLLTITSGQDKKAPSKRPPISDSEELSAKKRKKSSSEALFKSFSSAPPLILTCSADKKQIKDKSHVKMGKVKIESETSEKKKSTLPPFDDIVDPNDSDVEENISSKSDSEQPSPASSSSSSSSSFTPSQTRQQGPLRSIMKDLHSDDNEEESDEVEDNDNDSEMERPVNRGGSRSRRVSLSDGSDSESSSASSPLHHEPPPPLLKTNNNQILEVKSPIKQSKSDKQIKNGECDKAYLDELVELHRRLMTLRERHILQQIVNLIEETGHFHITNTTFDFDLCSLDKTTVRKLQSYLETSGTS
# UCH37 inh: blocks the human deubiquitinase UCH37; Q9Y5K5; purified proteasome/UCH37, Ub-AMC cleavage fluorescence; inhibition, % (test concentration not listed); hit rate 0.33% among 330,000;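 active = mean of two replicates above 20%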;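 also: 0% = compound-free wells with enzyme and 100% = wells lacking proteasome; stock transfer was 100 nL into about 20 µL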
# Target sequence (Q9Y5K5 whole entry, looked up): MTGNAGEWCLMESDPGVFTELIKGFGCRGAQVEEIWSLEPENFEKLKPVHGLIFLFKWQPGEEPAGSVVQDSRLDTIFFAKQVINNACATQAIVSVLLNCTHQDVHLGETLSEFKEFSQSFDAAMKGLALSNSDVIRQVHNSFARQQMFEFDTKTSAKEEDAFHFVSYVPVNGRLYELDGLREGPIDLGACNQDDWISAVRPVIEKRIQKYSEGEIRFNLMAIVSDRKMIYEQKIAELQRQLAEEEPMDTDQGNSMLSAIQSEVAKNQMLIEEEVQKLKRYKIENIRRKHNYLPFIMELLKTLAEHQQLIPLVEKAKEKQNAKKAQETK
#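 system = Proteasome-associated human UCH37 deubiquitinase | amount = 0.15 nM proteasome as dispensed | medium = pH 7.4 Tris-HCl (50 mM) with ovalbumin, ATP-MgCl2, DTT | incubation = 30 min preincubation with enzyme, 25 min cleavage at room temperature | detection = AMC fluorescence 355/460 nm | read-out basis = percent inhibition | controls = no-proteasome and no-compound wells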
# Beta cell apopt: blocks beta cell apoptosis. INS-1E cytokine-induced death, ATP luminescence, 48 h; percent of positive-control rescue, neutral wells zero. protection from apoptosis, % (concentration not given with the values). hit rate 0.8% among 300,000. AID 435005;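 active = all replicates at 75% or more, or half of them and the mean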;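 also: 0% = cytokine-treated negative control wells and 100% = positive control rescue; higher means more ATP so stronger rescue from cytokine killing; wells of about 40 µL received 100 nL stock; the first replicate is given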
# rRNA inh HTS OD600: further read-out of rRNA inh HTS, marked with its call; OD600 change, %; measured here: OD600 growth;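 optical density of the mix in the first replicate; 0 = DMSO median and -100 = no signal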
# rRNA inh HTS RFP: further read-out of rRNA inh HTS, marked with its call; RFP signal change, %; measured here: RFP humanized mutant strains;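 first replicate; 0 = DMSO median and -100 = no signal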
# Numbers without * were called inactive; i = inactive; nt = no result given; & = joins results of further samples.
nr	SMILES	Ecoli growth	T cruzi repl	FGF22 binding	rRNA inh HTS	rRNA inh HTS OD600
1	Cn1c(=O)n(Cc2ccccc2Cl)c(=O)c2c1[nH]c(=S)n2C	0.68	-2	i	10	14
2	Cc1ccc(O)c(N=Nc2ccc(S(=O)(=O)N3CCOCC3)cc2)c1	0.69	1	i	5	14
3	COc1ccc(-c2coc3cc4oc(=O)cc(-c5ccccc5)c4cc23)cc1F	0.67	22	nt	nt	nt
4	CC12CCC(C(=O)Nc3ccc(Br)cn3)(OC1=O)C2(C)C (centres undefined)	0.69	-8	i	-8	-6
5	Cn1c(=O)c2c(ncn2CCOc2cccc(Br)c2)n(C)c1=O	0.69	6	i	4	3
6	Cc1cccc(NC(=O)Nc2ccc(C#N)cc2)n1	0.7	20	i	4	3
7	CCCCN(CCCC)CC(O)COc1ccccc1C(=O)Nc1ccccc1 (centres undefined)	0.68	16	i	-6	-7
8	O=C(Nc1cccc(C(F)(F)F)c1)c1cc2c(s1)-c1ccccc1OC2	0.72	26	nt	nt	nt
9	CCN(CC)C(=O)CC(c1cc(OC)c(OC)c(OC)c1)c1c(OC)cc(OC)c2ccc(=O)oc12 (centres undefined)	0.7	10	i	0	10
10	Cn1c(=O)oc2cc(S(=O)(=O)Nc3ccccc3F)ccc21	0.65	-10	i	4	9
11	COc1cccc(C(=O)NCCC2=CCCCC2)c1OC	0.72	4	nt	nt	nt
12	CC(C)NS(=O)(=O)c1ccc(OCC(=O)Nc2ccc(F)cc2F)cc1	0.63	-30	i	-6	-1

nr	rRNA inh HTS RFP	A1 inh	AF4-AF9 inh	UCH37 inh	Beta cell apopt
1	0.2	0.3	-5.9	4.1	1
2	-2.5	-1.6	2.5	3.4	3
3	nt	1.8	nt	2.0	20
4	3.3	-0.8	0.9	2.8	-3
5	1.5	0.1	3.2	5.4	2
6	0.7	-0.2	-1.5	1.5	-19
7	-2.5	-0.1	-12	0.8	0
8	nt	-1.4	nt	i	13
9	5.5	-0.5	4.4	-4.9	6
10	-0.5	0.5	0.4	2.7	9
11	nt	-0.9	nt	18	-1
12	-2.6	0.4	-0.6	1.7	-12

# Later entries
nr	SMILES	Ecoli growth	T cruzi repl	FGF22 binding	rRNA inh HTS	rRNA inh HTS OD600
13	CN1CCCC(C#CC(O)(c2ccccc2)c2ccccc2)C1 (centres undefined)	0.64	-19	i	19	10
14	COc1ccc(C(=O)NCc2ccc(C)cc2)cc1S(=O)(=O)N1CCCC1	0.69	nt	i	1	5
15	CCC[C@@H]1CCCC/C=C\CCCC(=O)OCCN1C(=O)OC(C)(C)C	nt	nt	i	4	10
16	O=C(Nc1ccccc1)C1CCCN1C(=O)Nc1ccccc1[N+](=O)[O-] (centres undefined)	0.72	-3	i	10	9
17	CC1CCC(NC(=O)CN2C(=O)NC3(CCCCCC3)C2=O)CC1 (centres undefined)	0.69	nt	i	7	6
18	O=C(O)c1cc(NC(=O)c2ccccc2[N+](=O)[O-])ccc1O	0.65	-1	i	9	9
19	Cc1ccc(S(=O)(=O)N2CCCCC2)cc1C(=O)NCCCN1CCOCC1	0.69	-4	i	nt	nt
20	CC1=NN2C(=N)/C(=C\c3cc(C)n(Cc4ccccc4)c3C)C(=O)N=C2S1	nt	-29	i	-4	-1
21	CCCn1nnnc1NCc1ccccc1OCc1ccc(F)cc1	0.68	0	nt	nt	nt
22	N#Cc1ccc(S(=O)(=O)N2CCC(C(=O)N3CCN(Cc4ccc5c(c4)OCO5)CC3)CC2)cc1	0.67	nt	i	-2	-4
23	O=C(O)CCC(=O)N(Cc1ccco1)C1CC(=O)N(c2ccccc2)C1=O (centres undefined)	0.73	-14	i	10	9
24	Cn1nc(C(=O)OCC(=O)Nc2ccccc2OC(F)F)c2ccccc2c1=O	0.72	nt	i	11	5

nr	rRNA inh HTS RFP	A1 inh	AF4-AF9 inh	UCH37 inh	Beta cell apopt
13	-4.3	-0.3	-2.9	1.8	2
14	-1.4	0.8	-0.5	0.6	-2
15	-1.9	0.6	-5.4	3.5	9
16	-2.6	-0.8	2.1	7.4	0
17	-0.9	0.7	-0.9	1.4	4
18	1.3	0.0	-0.7	3.7	-1
19	nt	0.0	-2.5	3.2	1
20	3.3	-0.4	-1.3	nt	-6
21	nt	-0.1	nt	4.8	2
22	-0.2	0.7	1.7	3.4	-2
23	2.3	0.1	-14	2.4	3
24	0.5	1.3	-4.3	-1.5	-3

# The results go on:
nr	SMILES	Ecoli growth	T cruzi repl	FGF22 binding	rRNA inh HTS	rRNA inh HTS OD600
25	CCOC(=O)C1(Cc2cccc(Cl)c2)CCCN(C(=O)c2cc(C)n(C)n2)C1 (centres undefined)	0.7	15	i	-1	-3
26	COc1ccc(NC(=O)NNS(=O)(=O)c2ccc(OC)c(OC)c2)c(OC)c1	0.66	-13	i	1	8
27	Cc1cccc2cc(CN(CCCN(C)C)C(=S)NCCc3ccccc3)c(=O)[nH]c12	0.73	62*	i	-17*	-5.0*
28	O=C1CSC(c2ccccn2)N1c1ccc(C(F)(F)F)cc1 (centres undefined)	0.65	4	i	4	2
29	Cc1cc(=O)[nH]c(SCC(=O)Nc2nc3ccccc3s2)n1	0.67	-21	i	-2	0
30	COC(=O)c1sc(NC(=O)c2cc(-c3ccccc3)nc3ccccc23)c(C#N)c1C	0.72	14	nt	nt	nt
31	Cc1cccc(-n2nc3c(c2NC(=O)CCCl)CSC3)c1	0.65	-10	i	6	8
32	O=C(c1ccc(S(=O)(=O)Nc2ccccc2)cc1)N1CCOCC1	0.76	1	nt	nt	nt
33	NC(=S)N/N=C/c1ccc(-c2ccc(SC(F)F)cc2)o1	nt	72*	i	-11	-2
34	CCOCCCNS(=O)(=O)c1ccc2c(c1)CCN2C(=O)CC	0.72	6	nt	nt	nt
35	COc1cccc(C(=O)Nc2ccc(NC(=O)C3CCCCC3C(=O)O)cc2)c1 (centres undefined)	0.68	-16	i	-10	-20
36	CC1CCN(Cc2c(C(=O)N/N=C/c3cccc(Cl)c3)nnn2-c2nonc2N)CC1	nt	7	i	16	2

nr	rRNA inh HTS RFP	A1 inh	AF4-AF9 inh	UCH37 inh	Beta cell apopt
25	-3.0	0.1	-8.5	0.9	8
26	0.5	0.3	0.3	-1.3	-4
27	3.4*	0.0	9.2	0.2	5
28	-1.0	0.8	nt	5.0	7
29	1.0	-0.3	-2.7	12	-8
30	nt	0.8	nt	4.3	61
31	1.0	0.2	4.0	2.4	0
32	nt	0.0	nt	1.2	0
33	-0.9	0.0	4.7	nt	14
34	nt	1.5	nt	-2.3	0
35	0.6	-0.5	-4.1	2.2	-4
36	2.6	-1.7	3.7	nt	2

# (listing goes on)
nr	SMILES	Ecoli growth	T cruzi repl	FGF22 binding	rRNA inh HTS	rRNA inh HTS OD600
37	C=CCNc1sc(C(=O)C(C)(C)C)c(N)c1C#N	0.67	14	nt	nt	nt
38	COc1ccccc1-c1cn(S(=O)(=O)c2ccc(F)cc2)nc1N	0.77	12	nt	nt	nt
39	O=C(COC(=O)CCCN1C(=O)c2cccc3cccc(c23)C1=O)Nc1ccc(Cl)cc1	0.71	-11	i	nt	nt
40	Cc1ccc(CN(C)C(=O)CN2C(=O)NC3(CCCC3)C2=O)o1	0.66	nt	i	7	12
41	O=C(NCCN1CCCC1)C1COc2ccccc2O1 (centres undefined)	0.68	-6	nt	nt	nt
42	O=C1CN(C(=O)c2ccccc2)C(c2ccccc2)c2cc(F)ccc2N1 (centres undefined)	0.71	23	i	4	7
43	COc1ccc(-n2c(C)cc(C(=O)CSc3nnc(-c4cccs4)o3)c2C)cc1	0.75	-5	nt	nt	nt
44	COc1ccc(N2C(=O)CN=C2Nc2nc(C)cc(C)n2)cc1OC	0.7	-14	nt	nt	nt
45	O=C1CCCC(O)=C1Sc1cc(Cl)c(Cl)cc1Cl	0.64	-2	i	-23*	-4.3*
46	CCc1nc2sc3c(=O)n(N)cnc3c2c2c1COC(C)(C)C2	0.69	-8	nt	nt	nt
47	O/N=C(\c1ccc(Cl)cc1)c1cc2ccccc2o1	nt	5	i	-45	-41
48	C=CCC[C@@H](Cc1ccc(F)cc1)C(=O)OC[C@@H](Cc1c[nH]c2ccccc12)NC(=O)[C@H](CC=C)CC(=O)N[C@H](CO)Cc1ccccc1	nt	nt	i	13	13

nr	rRNA inh HTS RFP	A1 inh	AF4-AF9 inh	UCH37 inh	Beta cell apopt
37	nt	-0.6	nt	4.5	-6
38	nt	0.3	nt	4.3	8
39	nt	0.5	0.7	-3.0	-2
40	-2.9	-0.7	-2.1	1.3	-1
41	nt	0.2	nt	4.7	-2
42	0.4	0.6	3.5	5.1	-3
43	nt	0.0	nt	1.9	43
44	nt	0.2	nt	2.8	2
45	-2.3*	-0.1	-2.7	3.6	0
46	nt	1.2	nt	-1.5	-7
47	-11	0.6	2.1	nt	nt
48	5.9	0.5	-3.4	-0.3	9

# Further compounds.
nr	SMILES	Ecoli growth	T cruzi repl	FGF22 binding	rRNA inh HTS	rRNA inh HTS OD600
49	CCO[C@H]1OC(C(=O)N2CCN(Cc3ccc4c(c3)OCO4)CC2)=C[C@@H](c2ccc(C(F)(F)F)cc2)[C@@H]1CCCO	nt	37	i	-22	-50
50	COc1cc(O)c(NC(C)=O)c2nonc12	0.69	-1	nt	24	3
51	CCOC(=O)C1(Cc2cccc(F)c2)CCN(C(=O)C2CCCO2)CC1 (centres undefined)	0.67	5	nt	12	4
52	CC(C)(C)C(=O)Nc1c2c(nn1-c1ccc(F)cc1)CSC2	0.71	-19	i	1	12
53	Cn1nnnc1SCC(=O)N1CCN(C(c2ccccc2)c2ccccc2)CC1	0.73	-3	nt	nt	nt
54	Cc1ccc(N(C(=O)NC2CCCCC2)C2=NCCCCC2)cc1	0.7	-11	i	23	-5
55	CCn1cc(CNC(=O)c2cc(COc3ccc(F)cc3F)on2)cn1	0.64	-18	i	-5	-23
56	CCCc1nc2ccccc2c(C(=O)OCC(=O)Nc2ccc(S(=O)(=O)N3CCOCC3)cc2)c1CC	0.73	48	nt	nt	nt
57	COC(=O)c1ccccc1NC(=O)N1CCN(c2ccc(F)cc2)CC1	0.65	0	i	-39	-55

nr	rRNA inh HTS RFP	A1 inh	AF4-AF9 inh	UCH37 inh	Beta cell apopt
49	-2.2	0.1	5.1&5.3	6.5	0
50	-8.3	0.1	6.6	6.9	-13
51	-1.1	-0.2	1.4	-1.8	-3
52	-3.0	1.4	-3.1	2.2	-8
53	nt	0.1	nt	2.6	0
54	0.6	1.5	-0.4	4.1	-7
55	-1.2	-0.3	-2.4	2.3	6
56	nt	-0.1	nt	4.9	8
57	0.0	0.5	1.6	0.1	9

# Part of the list above, limited to rRNA inh HTS RFP, T cruzi repl and rRNA inh HTS OD600.
nr	SMILES	rRNA inh HTS RFP	T cruzi repl	rRNA inh HTS OD600
54	Cc1ccc(N(C(=O)NC2CCCCC2)C2=NCCCCC2)cc1	0.6	-11	-5
55	CCn1cc(CNC(=O)c2cc(COc3ccc(F)cc3F)on2)cn1	-1.2	-18	-23
56	CCCc1nc2ccccc2c(C(=O)OCC(=O)Nc2ccc(S(=O)(=O)N3CCOCC3)cc2)c1CC	nt	48	nt

# Screening data: PubChem, several laboratories

# These rows are one share of the data; the hit share may differ from the screen's.
